MT1-MMP act inh: blockers of MT1-MMP proenzyme processing, primary screen, HT1080 RFP-PRO-GFP cells, GFP/RFP fluorescence; GFP/RFP ratio change, % at 20 µM; Matrix metalloproteinase-14 (Homo sapiens), P50281; GFP/RFP ratio fluorescence, overnight; percent of plate control window, DMSO zero; AID 651647, 2012; 360,000 tested, 0.061% active;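 active = GFP/RFP ratio change of at least 30% with cell ATP level not reduced by more than half and red fluorescence within 50% of control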; also: strong numbers were not always called active
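Compound: 20 µM single dose, 1% DMSO / System: HT1080 RFP-PRO-GFP cells / Controls: DMSO and RFP-L50D-GFP cell wells / Read-out basis: GFP/RFP fluorescence ratio / Schedule: overnight compound exposure at 37 °C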
Yeast UUG start: modulators of yeast start codon fidelity, primary screen, whole organism, S. cerevisiae, single point, plate reader. S. cerevisiae UUG-firefly luciferase reporter, luminescence/redox ratio. activity score, % at 18.7 µM. 350,000 tested, 0.13% active. AID 602363, 2012;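 active = replicate mean at a twofold rise or more, about +100% in these data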;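 also: firefly luciferase made from a UUG start codon reports start codon fidelity; reporter light over untreated wells divided by growth signal over untreated wells; some hits fall short of that in this replicate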
MT1-MMP act inh RFP: recorded beside MT1-MMP act inh, whose call it bears; RFP signal change, %; measured here: RFP expression control read;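 0 = vehicle wells; hits needed this value within 50% of zero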
The depositor's hits bear a star; & = joins results of further samples.

MT1-MMP act inh	MT1-MMP act inh RFP	Yeast UUG start	mol
4	-5	-10	COc1cccc(NC(=O)CN(C)C(=O)c2cccc(NS(=O)(=O)c3ccc(Br)cc3)c2)c1
5	1	-18	NC(=O)C1CCN(C(=O)c2cccc(CN3C(=O)c4ccccc4C3=O)c2)CC1
4	6	-2&-8	COC(=O)N(C)C[C@@H]1OCc2cnnn2CCCC(=O)N([C@@H](C)CO)C[C@@H]1C
2	5	-8	CN1CCN(C(=O)c2ccc(NS(=O)(=O)c3cccc([N+](=O)[O-])c3)cc2)CC1
4	3	10	CCc1noc(C)c1C(=O)OCC(=O)Nc1cccc(C)c1
-3	-3	12	CC1CCC2(CC1)NC(=O)N(CC(=O)c1ccc(CNC(=O)C(C)(C)C)s1)C2=O (stereo unspecified)
1	3	-19	OCCn1cnc2c(SCc3ccccc3)ncnc21
-1	-7	-11	Cc1cc(C)c2c(=O)n3c(nc2c1)C(CC(C)C)NC(=O)c1cc2ccccc2cc1-3 (stereo unspecified)
-2	1	6	Cc1ccc(Cc2c(-c3cccc(Br)c3)nc3ccc(Br)cn23)cc1
1	0	-8	CCOC(=O)C1=CCC2C(=O)N(C)C(=O)C12 (stereo unspecified)
3	1	-1	O=C(CCNC(=O)c1ccc([N+](=O)[O-])cc1)NC1CCCCC1
3	0	1	CCOC(=O)C1=C(C)Nc2ccccc2N/C1=N\S(=O)(=O)c1cccc(Cl)c1
-2	-4	-2	COCCCN1C(=O)C(CC(=O)NCCCCc2ccccc2)CC(C(=O)N(C(C)C)C(C)C)=C1C (stereo unspecified)
-4	0	5	O=C1CN(C(=O)CSc2nnnn2C2CC2)c2ccccc2N1
3	5	-25	O=S(=O)(c1ccc2c(c1)CCN2)N1CCCC1
0	-3	-24	COc1ccc(Cc2c(-c3ccccc3)nc3cc(C)c(Br)c(C)n23)c(C)c1
-9	0	-5	Cc1ccc(S(=O)(=O)N(C)c2ccc(OC(=O)CN3C(=O)NC(C)(c4ccccc4)C3=O)cc2)cc1C (stereo unspecified)
1	0	-12	CC(C)CN(C(=O)C1COc2ccccc2O1)c1c(N)n(CC(C)C)c(=O)[nH]c1=O (stereo unspecified)
-2	-1	3	CCN(Cc1nc2ccccc2c(=O)[nH]1)C(=O)c1ccc(C)c(NC(=O)c2ccco2)c1
-2	-2	-15	O=C(Nc1ccc(S(=O)(=O)Nc2nccs2)cc1)c1ccccc1OC(F)F
2	2	4	CC(C(=O)N1CCCC1)N(C)CC(=O)Nc1cccc(F)c1 (stereo unspecified)
0	-3	-12	Nc1nc(SCc2ccccn2)c2ncn(C3CCCC3)c2n1
4	-17	-10	Cc1ccc(C(=O)N(C)CC(=O)Nc2ccc(Cl)c(C(F)(F)F)c2)cc1S(=O)(=O)N1CCCCC1
-1	0	-5	Cc1cc(C)c(C)c(S(=O)(=O)N2CCN(C(=O)c3ccccn3)CC2)c1C
-5	2	-16	Cc1ccc(C)c(NC(=O)COC(=O)c2ccc3ccccc3n2)c1

Not a retest: an excerpt of the list.
MT1-MMP act inh	MT1-MMP act inh RFP	Yeast UUG start	mol
1	0	-12	CC(C)CN(C(=O)C1COc2ccccc2O1)c1c(N)n(CC(C)C)c(=O)[nH]c1=O (stereo unspecified)
-2	-1	3	CCN(Cc1nc2ccccc2c(=O)[nH]1)C(=O)c1ccc(C)c(NC(=O)c2ccco2)c1

Following part
MT1-MMP act inh	MT1-MMP act inh RFP	Yeast UUG start	mol
14	10	-2	Nc1c(C(=O)CSc2nc3ccccc3o2)c(=O)[nH]c(=O)n1C1CC1
-1	1	2	Cc1ccc(NC(=O)COC(=O)c2ccc(S(=O)(=O)N3CCCCC3)cc2)cc1
-1	0	-10	S=c1ncc2[nH]c(=S)[nH]c2[nH]1
-14	-29	-10	CN(C)S(=O)(=O)c1cccc(NC(=O)c2cccc(S(=O)(=O)N3CCc4ccccc43)c2)c1
1	-2	-9	COc1ccc(C(=O)NC(C(=O)OCC(=O)Nc2sccc2C(N)=O)C(C)C)cc1 (stereo unspecified)
-4	4	-4	O=C(NNC(=O)c1n[nH]c2ccccc12)c1ccccc1
-1	2	-7	O=C(COC(=O)/C=C/c1ccccc1)Nc1ccc2c(c1)OCCO2
-4	3	-13	CCN(CC)C(=O)C1=C(C)N(CCCN2CCCC2=O)C(=O)C(CC(=O)NC2CC2)C1 (stereo unspecified)
5	-5	-8	CN(c1ccccc1)S(=O)(=O)c1ccc(C(=O)NCc2ccco2)cc1
4	0	-10	COc1ccc(C(=O)NNC(=O)c2cccc3ccccc23)cc1
2	-2	1	Cc1ccc(NC(=O)C2COc3ccccc3O2)cc1S(=O)(=O)N1CCOCC1 (stereo unspecified)
-1	3	1	COc1ccc(CCNC(=O)c2ccc(NC(=O)CC3SC(N4CCCCC4)=NC3=O)cc2)cc1OC (stereo unspecified)
0	7	-6	COCCNC(=O)C1(C)CCCN(Cc2ccc(OC)cc2)C1 (stereo unspecified)
6	4	-18	CCN(CC)Cc1cc(Oc2ccc(O)c(CN(CC)CC)c2)ccc1O
-5	1	-1	COc1ccccc1C(=O)NC(=O)COC(=O)Cc1ccc(F)cc1
2	1	-7	CC(=O)Nc1cc(C(=O)CSc2nnc(C3CC3)n2C2CC2)ccc1O
-9	-27	-8	Cc1ccccc1C(=O)N1CCC(C(=O)Nc2ccc(C)c(S(=O)(=O)N3CCCCC3)c2)CC1
-1	-1	-1	Cc1ccc(S(=O)(=O)N2C[C@H]3C(=O)C[C@@H](c4ccccc4)N(S(=O)(=O)c4ccc(C)cc4)[C@H]3C[C@H]2c2ccccc2Cl)cc1
1	0	9	Cc1ccc(S(=O)(=O)CCC(=O)OCCOc2ccc(Br)cc2)cc1
4	2	-3	O=C(Cc1ccc(NC(=O)C2CCN(C(=O)C3CC3)CC2)cc1)Nc1ccc(C(=O)N2CCOCC2)cc1
6	-1	-25	O=C(CCSc1ccc(F)cc1)NNC(=O)c1ccc([N+](=O)[O-])cc1
5	2	1	COc1ccc(CCN2CC(C(=O)Nc3nnc(Cc4ccccc4)s3)CC2=O)cc1OC (stereo unspecified)
6	4	-27	O=C(OCC(=O)N1CCCCC1)c1ccc2c(c1)C(=O)N(Cc1ccco1)C2=O
1	-4	-32	CC(Sc1ncnc2sccc12)C(=O)Nc1ccc(S(=O)(=O)N2CCOCC2)cc1 (stereo unspecified)
-2	-6	-6	COCC(=O)Nc1ccc(N2CCCC2)c(S(=O)(=O)Nc2ccccc2OC)c1
1	-3	-23	CCCCNC(=O)CSc1ccc(S(=O)(=O)N2CCOCC2)cn1
6	4	-16	COc1cc(/C=C/CNC[C@H]2O[C@@H](n3ccc(N)nc3=O)[C@H](O)[C@@H]2O)ccc1O
-2	2	-6	Cc1ccc(S(=O)(=O)N2CCN(C(=O)CN(Cc3ccco3)Cc3cccs3)CC2)cc1
-2	2	-3	CC(=O)c1cccc(S(=O)(=O)NCCCN2CCOCC2)c1
4	-1	-19	COc1cc(OC)cc(C(=O)N2CCN(S(=O)(=O)c3ccc(Cl)s3)CC2)c1
3	-1	5	CCCN(C(=O)CSc1ncnc2sccc12)c1c(N)n(Cc2ccccc2)c(=O)[nH]c1=O
3	4	-6	CC(NC(=O)c1ccccc1)C(=O)OCC(=O)Nc1cccc(S(=O)(=O)N2CCCC2)c1 (stereo unspecified)
-2	1	-3	CC(NC(=O)C1CC(=O)N(c2ccc3c(c2)OCCO3)C1)c1ccccc1 (stereo unspecified)
-1	-6	-5	Cc1ccccc1-c1nn(-c2ccccc2)cc1C(=O)NCC(c1ccco1)N1CCCC1 (stereo unspecified)
2	-2	-14	O=C(COC(=O)c1ccccc1NCCO)Nc1ccc(S(=O)(=O)NC2=NCCCCC2)cc1
-3	-2	-7	Cc1ccc(NC(=O)CN(C)C(=O)C(C)N2CCN(Cc3ccccc3C)CC2)cc1 (stereo unspecified)
-5	0	-14	CCOc1ccc(S(=O)(=O)Nc2ccccc2C(=O)N(C)C2CCN(C)CC2)cc1
4	0	-36	CC(C)CN1C(=O)C(=O)N(CC(=O)N(C)CC(=O)Nc2ccc(Cl)c(C(F)(F)F)c2)C1=O
-2	4	-7	CC(C)N(Cc1ccccc1)C(=O)COC(=O)c1ccc2ncsc2c1
-1	-4	-11	CCCCC1CC2=C(C(=O)OC(C)(C)O2)C(c2ccc(Cl)cc2)O1 (stereo unspecified)
4	-21	0	Cc1ccc(NC(=O)C2CCN(C(=O)OC(C)(C)C)CC2)cc1S(=O)(=O)N1CCCCC1
1	-11	-36	CN(C)C1CCN(Cc2cc(COCc3ccccc3)c3cccnc3c2O)C1 (stereo unspecified)
0	-3	-9	COc1cc(OC)cc(C(=O)Nc2ccccc2C(=O)NC2CC2)c1
3	2	-11	CC(C)(C)c1ccc(C(=O)CCC(=O)OCC(=O)NCCc2ccc(S(N)(=O)=O)cc2)cc1
0	4	-4	COc1ccc(C(=O)NCC(=O)OCC(=O)c2c(C)[nH]c3ccccc23)cc1OC
-5	-2	-24	Nc1c(N(Cc2ccco2)C(=O)c2ccc(Br)cc2)c(=O)[nH]c(=O)n1Cc1ccccc1
0	3	15	CN(C)C(=O)CCc1ccc2c3c([nH]c2c1)[C@]1(C)[C@@H](C(=O)N2CCOCC2)C[C@H](CC(=O)NCc2cccc(C(F)(F)F)c2)C(=O)N1CC3
-1	1	-16	CCCC(=O)N1CCC1(C)C(=O)NCc1ccc(C(C)C)cc1 (stereo unspecified)
7	-5	-18	CC1(C)CC(=Cc2cc(O)ccc2[N+](=O)[O-])C(=O)c2ccccc21
-46	-29	-12	O=C(CO)c1c[nH]c2ccccc12

The list goes on.
MT1-MMP act inh	MT1-MMP act inh RFP	Yeast UUG start	mol
9	6	-28	COc1ccccc1NS(=O)(=O)c1ccc(C(=O)Nc2ncccc2O)cc1
10	0	-6	CC(=O)Nc1ccc(S(=O)(=O)N2CCCC3CCCCC32)cc1 (stereo unspecified)
-4	3	-13	O=C(NC1CC1)c1sc2cc(F)ccc2c1Cl
-2	-2	7	COc1ccc(S(=O)(=O)N2CCCCCC2)cc1NC(=O)CCc1cc(OC)c(OC)c(OC)c1
5	-6	-9	CCOC(Cn1cc([N+](=O)[O-])c(=O)[nH]c1=O)OCC
0	4	-7	OCC1OC(O)CC(O)C1O (stereo unspecified)
1	0	-13	Cc1cc(C(=O)COC(=O)COc2ccccc2C#N)c(C)n1CC1CCCO1 (stereo unspecified)
-4	-4	-11	Cn1c(N)c(C(=O)CSc2nc(C3CC3)n(-c3ccccc3)n2)c(=O)n(C)c1=O
1	1	-11	O=C1CCc2cc(S(=O)(=O)Nc3ccccc3Cl)ccc2N1
-3	1	-18	CCOC(=O)C1(C)CCCN1C(=O)c1ccc(C(=O)OC)cc1 (stereo unspecified)
2	2	-3	C=CCNc1oc(-c2ccc(-c3ccccc3)cc2)nc1C#N
3	2	-5	CCOc1ccc(NC(=O)CN(C)C(=O)CC2CCCCC2)cc1OCC
-7	-3	-14	CNC(=O)NC(=O)CSc1ccc(S(=O)(=O)N(C)C2CCCCC2)cn1
1	4	6	COc1ccc(CC(=O)OCC(=O)Nc2cccc(C(C)=O)c2)cc1OC
4	-4	-3	Nc1cc2c(cc1Br)-c1ccc(F)cc1C2O (stereo unspecified)
5	-4	-9	O=C(Nc1cccc(S(=O)(=O)N2CCCCC2)c1)c1ccco1
1	2	-3	CCOC(=O)C1=CCC2C(=O)N(CC)C(=O)C12 (stereo unspecified)
2	5	-3&-8	Cc1noc(C)c1NC(=O)N(C)C[C@@H]1OCc2cnnn2CCCC(=O)N([C@@H](C)CO)C[C@@H]1C
-2	2	-25	CCNC(=O)C1(C)CCN(C(=O)c2ccc(C(=O)OC)cc2)C1 (stereo unspecified)
1	-2	-10	O=C(CNc1ccccc1F)Nc1cccc(S(=O)(=O)N2CCCCC2)c1
-34	4	-15	O=C(COC(=O)C1=Cc2ccccc2OC1)NCc1ccc(F)cc1
4	5	-14	O=C(OCC(=O)N1CCN(Cc2ccccc2)CC1)c1cc(Cl)ccc1[N+](=O)[O-]
-3	1	-3	CC1=C(C(=O)N(C)C)CC(CC(=O)NCc2ccco2)C(=O)N1CCC1=CCCCC1 (stereo unspecified)
2	4	-18	CCn1nc(C(=O)NNC(=O)c2cc(Cl)ccc2OC)c2ccccc2c1=O
-1	2	-36	O=C(NC(c1ccc(Cl)cc1)c1cnccn1)C1CCN(CCCc2ccccc2)CC1 (stereo unspecified)
0	3	-15	O=C(CNC(=O)c1ccc(Br)o1)NCC1CCCCC1

Single values from the entries so far.
Reading for O=C(NC(c1ccc(Cl)cc1)c1cnccn1)C1CCN(CCCc2ccccc2)CC1 (stereo unspecified) in Yeast UUG start: -36
Reading for O=C(Nc1cccc(S(=O)(=O)N2CCCCC2)c1)c1ccco1 in MT1-MMP act inh: 5
Reading for CC(=O)Nc1ccc(S(=O)(=O)N2CCCC3CCCCC32)cc1 (stereo unspecified) in MT1-MMP act inh: 10
Reading for COc1ccc(CC(=O)OCC(=O)Nc2cccc(C(C)=O)c2)cc1OC in MT1-MMP act inh RFP: 4
Reading for CCn1nc(C(=O)NNC(=O)c2cc(Cl)ccc2OC)c2ccccc2c1=O in Yeast UUG start: -18
Reading for Nc1cc2c(cc1Br)-c1ccc(F)cc1C2O (stereo unspecified) in MT1-MMP act inh: 4
Reading for CNC(=O)NC(=O)CSc1ccc(S(=O)(=O)N(C)C2CCCCC2)cn1 in Yeast UUG start: -14

A portion of the library, so the mix of outcomes need not match the whole.
